LANA-H2B inh: blocks KSHV LANA binding to histone H2A/H2B; 0.6% of 320,000 active; inhibition, % (test concentration not listed); cell-free LANA-H2A/H2B peptide, fluorescence polarization; in the data active = inhibition mostly above about 10%, no sharp cut-off; inactive = mostly below about 6.7%;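 note: stock transfer was 7.5 nL into about 10 µL; 0% = median of vehicle wells and 100% = median of positive control wells; one replicate is shown; the record names a cut of 25% in any replicate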
B2AR ag: activates human beta-2 adrenergic receptor causing internalization. 0.43% of 340,000 active. P07550. Am2.2-beta2AR cells, FAP receptor internalization, flow cytometry; reference of the scale not given here. AID 504454. response, % (test concentration not listed);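 active = response above a set limit, near 3 SD of response in nonfluorescent compounds, cut at about 42% in these data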;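 note: stock transfer was 100 nL into about 11 µL; a reference agonist was the positive control; negative values mostly stem from fluorescent compounds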
Target sequence (P07550 whole entry, looked up): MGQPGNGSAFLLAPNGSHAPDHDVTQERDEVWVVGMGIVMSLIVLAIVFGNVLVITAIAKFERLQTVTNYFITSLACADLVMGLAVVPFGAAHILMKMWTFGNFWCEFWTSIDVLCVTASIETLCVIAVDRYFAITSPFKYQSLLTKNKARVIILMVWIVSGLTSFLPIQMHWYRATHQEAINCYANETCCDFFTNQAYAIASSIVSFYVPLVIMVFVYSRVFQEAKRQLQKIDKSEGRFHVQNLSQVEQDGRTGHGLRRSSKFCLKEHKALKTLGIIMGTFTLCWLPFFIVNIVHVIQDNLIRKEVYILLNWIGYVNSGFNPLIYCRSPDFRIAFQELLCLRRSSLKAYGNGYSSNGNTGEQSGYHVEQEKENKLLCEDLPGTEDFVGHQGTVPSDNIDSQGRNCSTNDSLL
Calb FLC: affects C. albicans growth with fluconazole; C. albicans CaCi-2 (fluconazole-resistant clinical isolate) + fluconazole, Alamar Blue growth, 48 h; growth inhibition, % (no concentration beside the values); 0.57% of 300,000 active;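 active = most replicates above 75%; inconclusive = exactly half above 75%; inactive = most below 75%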;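 note: all wells also contain fluconazole at 8 µg/ml as a sub-toxic cotreatment; 0% = median of DMSO wells and 100% = median of geldanamycin control wells; wells of about 8 µL received 7.5 nL stock; the first replicate is given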
HNF4A DNA FP: change in binding of human HNF4 alpha to DNA | HNF4a-FITC DNA binding, fluorescence polarization, 1 h | 0.3% of 360,000 active | AID 1224865 | activity change, % at 10 µM; in the data active = activity change above about 30%, passing the limit was not always enough;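 note: controls were the assay level and a saturating level of protein; the project sought stronger binding though the title names inhibitors; some compounds called inactive have numbers as strong as hits; positive values seem to mean higher polarization but the record does not say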
Target sequence (P41235 whole entry, looked up): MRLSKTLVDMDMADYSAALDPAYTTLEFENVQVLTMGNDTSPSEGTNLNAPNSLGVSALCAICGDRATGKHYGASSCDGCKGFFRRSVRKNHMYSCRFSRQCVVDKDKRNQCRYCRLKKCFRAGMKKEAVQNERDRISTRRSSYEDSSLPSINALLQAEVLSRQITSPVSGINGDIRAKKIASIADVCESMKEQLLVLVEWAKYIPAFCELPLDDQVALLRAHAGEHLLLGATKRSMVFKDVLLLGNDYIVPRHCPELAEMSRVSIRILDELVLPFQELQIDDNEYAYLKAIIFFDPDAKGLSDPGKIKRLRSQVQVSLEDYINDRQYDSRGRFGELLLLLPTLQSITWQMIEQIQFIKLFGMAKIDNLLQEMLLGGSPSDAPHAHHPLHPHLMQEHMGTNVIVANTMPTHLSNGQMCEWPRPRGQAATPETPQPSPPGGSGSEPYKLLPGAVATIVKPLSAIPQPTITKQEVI
ALR H2O2 inh: human ALR oxidase inhibition via reduced H2O2. P55789. purified ALR, DTT oxidation, H2O2 HRP-luminol luminescence. inhibition, % (no concentration beside the values). 3.8% of 290,000 active. AID 485317;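 active = mean and each replicate at 75% or more; inconclusive = only one of the two met; inactive = neither met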;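 note: stock transfer was 7.5 nL into about 7.5 µL; 0% = neutral wells and 100% = wells with inactivated enzyme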
Target sequence (P55789 whole entry, looked up): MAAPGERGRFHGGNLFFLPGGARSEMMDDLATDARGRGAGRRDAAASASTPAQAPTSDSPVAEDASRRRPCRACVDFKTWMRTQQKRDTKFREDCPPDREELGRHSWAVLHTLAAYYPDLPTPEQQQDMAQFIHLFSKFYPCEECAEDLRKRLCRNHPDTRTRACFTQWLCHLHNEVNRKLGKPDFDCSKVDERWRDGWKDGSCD
RanGTP-Impb inh: inhibitors of RanGTP-importin-beta interaction, primary screen, biochemical, FRET, CFP-Ran, YFP-importin-beta, homogeneous. cell-free CFP-Ran/YFP-importin-beta FRET ratio. inhibition, % (test concentration not listed). AID 2216. 1.1% of 300,000 active;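 active = most replicates above 15%; inconclusive = exactly half above 15%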;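 note: 0% = DMSO wells and 100% = Ran loaded with GDP instead of GTP; wells of about 40 µL received 100 nL stock; the first replicate is given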
Vif TR-FRET: inhibitors of Vif binding to APOBEC3G peptide, primary screen, biochemical, TR-FRET, GST-Vif 1-94, biotin-A3G peptide, dose response retest (AID 1117319). TR-FRET GST-Vif / biotin-A3G peptide binding; higher % means a stronger effect; test concentration not given here; strong numbers were not always called active. one-dose inhibition, %; IC50 in µM for titrated hits. 0.57% of 260,000 active;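 active = above the screen mean plus three standard deviations and confirmed in dose response; inconclusive = results disagree or hit not tested in dose response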;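 note: Vif residues 1-94 fused to GST binding biotinylated APOBEC3G peptide 110-148; 0% = full assay without inhibitor and 100% = GST in place of GST-Vif; retest series ran down from 100 µM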
The depositor's hits bear a star; & = joins results of further samples.

For Cc1cc(C)c2nc3sc(C(=O)N4CCOCC4)c(N)c3cc2c1 the results were LANA-H2B inh -5.8, B2AR ag 34, Calb FLC 1, HNF4A DNA FP 8.2, ALR H2O2 inh 8, RanGTP-Impb inh -8.4 and Vif TR-FRET -7%.
`Cc1csc(NC(=O)CCNS(=O)(=O)c2ccc3c(c2)c(=O)n(C)c(=O)n3C)n1` gave LANA-H2B inh -0.8, B2AR ag 2, Calb FLC 3, HNF4A DNA FP -0.9, ALR H2O2 inh -1, RanGTP-Impb inh 1.4 and Vif TR-FRET 25%&-4%.
`CCOc1ccc(C(=O)N/N=C/c2cc([N+](=O)[O-])cs2)cc1` gave LANA-H2B inh -3.1, B2AR ag 14, Calb FLC inconclusive, HNF4A DNA FP -6.6, ALR H2O2 inh 5, RanGTP-Impb inh -4.2 and Vif TR-FRET -8%.
`C=CCN(C(=O)CNC(=O)c1ccco1)C(C(=O)NC1CCCCC1)c1ccc(OC)cc1OC` (stereo not given) gave LANA-H2B inh 2.1, B2AR ag 16, Calb FLC -2, HNF4A DNA FP 1.5, ALR H2O2 inh 0, RanGTP-Impb inh -1.0 and Vif TR-FRET 1%.
`O=c1cc(CSc2ccc([N+](=O)[O-])cc2)nc2sccn12` gave LANA-H2B inh 3.7, B2AR ag -7, Calb FLC 30, HNF4A DNA FP -0.5, ALR H2O2 inh -6, RanGTP-Impb inh 2.4 and Vif TR-FRET -1%.
Screening CNC(C)C#Cc1ccc2c(=O)c3cc(C)c(C)cc3oc2c1 (stereo not given) returned LANA-H2B inh -0.4, B2AR ag 15, Calb FLC -7, HNF4A DNA FP 14, ALR H2O2 inh 73 and RanGTP-Impb inh -2.1.
COc1cc(NC(=O)/C=C/c2ccccc2)c(C(=O)O)cc1OC was read as LANA-H2B inh 2.2, B2AR ag 1, Calb FLC -4, HNF4A DNA FP -2.1, ALR H2O2 inh 34, RanGTP-Impb inh 3.2 and Vif TR-FRET -8%.
Screening CSCCC(NS(=O)(=O)c1ccc2c(c1)Cc1cc(S(=O)(=O)NC(CCSC)C(=O)O)ccc1-2)C(=O)O (stereo not given) returned LANA-H2B inh -3.5, B2AR ag -2, Calb FLC -4, HNF4A DNA FP -4.3, ALR H2O2 inh -3, RanGTP-Impb inh inconclusive and Vif TR-FRET 1%.
COC(=O)c1c(C)cc(O)c(C)c1O was read as LANA-H2B inh 5.7, B2AR ag 1, Calb FLC 17, HNF4A DNA FP 0.4, ALR H2O2 inh -11 and RanGTP-Impb inh 1.0.
O=C(CSc1nc(=O)n(CCCN2CCOCC2)c2c1CCC2)Nc1ccc(F)cc1 was read as LANA-H2B inh 1.7, B2AR ag -1, Calb FLC -5, HNF4A DNA FP -0.3, ALR H2O2 inh 98*, RanGTP-Impb inh -0.7 and Vif TR-FRET -8%.
`O=C(Nc1ccccc1)N1N=C(c2cccs2)CC1c1cccs1` (stereo not given) gave LANA-H2B inh 3.2, B2AR ag 7, Calb FLC -38, HNF4A DNA FP -1.4, ALR H2O2 inh 1, RanGTP-Impb inh -0.6 and Vif TR-FRET -7%.
Screening COc1ccc(S(=O)(=O)N(CCN2CCOCC2)Cc2cc(OC)ccc2OC)cc1 returned LANA-H2B inh 5.4, B2AR ag -18, Calb FLC -42, HNF4A DNA FP -0.7, ALR H2O2 inh -2, RanGTP-Impb inh 3.6 and Vif TR-FRET -3%.
Screening CC(=O)Nc1nc(C)c(CCCOc2ccc([N+](=O)[O-])cc2)c(=O)[nH]1 returned LANA-H2B inh -2.2, B2AR ag -18, Calb FLC -1, HNF4A DNA FP -1.8, RanGTP-Impb inh 4.2 and Vif TR-FRET 5%.
For Cc1cc2ccccc2n1CCNC(=O)C1CCCC1 the results were LANA-H2B inh 2.3, B2AR ag 10, Calb FLC 6, HNF4A DNA FP -7.2, ALR H2O2 inh -3, RanGTP-Impb inh 1.8 and Vif TR-FRET 23%.
`CCN(C[C@H]1N[C@@](Cc2ccccc2)(C(=O)OC)[C@H]2C(=O)N(Cc3ccccc3)C(=O)[C@@H]12)S(=O)(=O)c1ccc(C(C)(C)C)cc1` gave LANA-H2B inh 67*, B2AR ag 2, HNF4A DNA FP 2.0, ALR H2O2 inh 1 and Vif TR-FRET -7%.
`CSc1nc(N)nc2c1ncn2CC(=O)N[C@H](C)c1cccc2ccccc12` gave LANA-H2B inh -8.9, B2AR ag -6 and HNF4A DNA FP 2.4.
For Cc1ccc(NC(=O)CCNC(=O)c2ccco2)cc1F the results were LANA-H2B inh -1.2, B2AR ag -1, Calb FLC 1, HNF4A DNA FP -1.3, ALR H2O2 inh -26, RanGTP-Impb inh 4.6 and Vif TR-FRET -6%.
Screening CC1CN(Cc2cc(=O)oc3cc(O)c(Cl)cc23)CC(C)O1 (stereo not given) returned LANA-H2B inh 1.7, B2AR ag 5, Calb FLC -9, HNF4A DNA FP -4.4, ALR H2O2 inh 8 and RanGTP-Impb inh 61*.
Screening CCCNC(=O)C(CC)NS(=O)(=O)c1ccc(OC)cc1 (stereo not given) returned LANA-H2B inh 1.0, B2AR ag 5, Calb FLC 1, HNF4A DNA FP -0.6, ALR H2O2 inh -15, RanGTP-Impb inh -5.6 and Vif TR-FRET 8%.
For Fc1ccccc1NC(=S)NC1CCCC1 the results were LANA-H2B inh -1.0, B2AR ag -10, Calb FLC 18, HNF4A DNA FP 4.4, ALR H2O2 inh -4, RanGTP-Impb inh 2.7 and Vif TR-FRET -3%.
For O=C(COC(=O)c1cc(S(=O)(=O)N2CCCCC2)ccc1N1CCOCC1)c1ccccc1 the results were LANA-H2B inh -3.4, B2AR ag -11, Calb FLC -19, HNF4A DNA FP 3.3, ALR H2O2 inh -5 and RanGTP-Impb inh 2.6.
For Cc1onc(-c2ccncc2)c1C(=O)O the results were LANA-H2B inh -0.1, B2AR ag -2, Calb FLC -2, HNF4A DNA FP 2.9, ALR H2O2 inh -4, RanGTP-Impb inh -4.8 and Vif TR-FRET 26%.
`COC(=O)[C@]1(Cc2ccccc2)N[C@H](CN(C)C(=O)Nc2ccccc2)[C@@H]2C(=O)N(C)C(=O)[C@@H]21` gave LANA-H2B inh -5.5, B2AR ag 3, HNF4A DNA FP -5.4 and Vif TR-FRET -2%.
CS(=O)(=O)N1CCc2cc(S(=O)(=O)N3CCCCC3)ccc21 was read as LANA-H2B inh -0.6, B2AR ag 4, Calb FLC 19, HNF4A DNA FP 2.4, ALR H2O2 inh 16, RanGTP-Impb inh 2.7 and Vif TR-FRET 1%.
For CC(C)CCN1CCN(CCCn2cccn2)CC1CCO (stereo not given) the results were LANA-H2B inh 9.2, B2AR ag -2, Calb FLC 31, HNF4A DNA FP 0.8, ALR H2O2 inh -15 and RanGTP-Impb inh 5.9.
Screening Cc1cc(=O)[nH]c(CN2CCC(c3ccccc3)CC2)n1 returned LANA-H2B inh 0.1, B2AR ag -4, Calb FLC 1, HNF4A DNA FP 2.3, ALR H2O2 inh -2, RanGTP-Impb inh -2.9 and Vif TR-FRET -4%.
For CC(C)C1Nc2c(O)cc(Cl)c([N+](=O)[O-])c2C2C=CCC21 (stereo not given) the results were B2AR ag 4, Calb FLC 81, HNF4A DNA FP -2.0, RanGTP-Impb inh -3.6 and Vif TR-FRET inconclusive.
`CCC(=O)Nc1cccc(NC(=S)NC(=O)Cc2ccccc2)c1` gave LANA-H2B inh -1.8, B2AR ag -1, Calb FLC -4, HNF4A DNA FP 3.4, ALR H2O2 inh -2, RanGTP-Impb inh 6.7 and Vif TR-FRET -2%.
For COCCn1c(SCc2cccc(F)c2)nc2cc(C(=O)OC)ccc2c1=O the results were LANA-H2B inh -2.9, B2AR ag -3, Calb FLC -1, HNF4A DNA FP 3.8, ALR H2O2 inh -4, RanGTP-Impb inh 2.1 and Vif TR-FRET -11%.
Screening COc1ccc(C2=NN(C(=O)CSc3nc(=O)n4cccc(C)c4n3)C(c3ccc(C)cc3)C2)cc1 (stereo not given) returned LANA-H2B inh 2.4, B2AR ag 4, Calb FLC 7, HNF4A DNA FP -0.4, ALR H2O2 inh 8, RanGTP-Impb inh -0.5 and Vif TR-FRET 10%.

For convenience, some entries already given.
For Cc1onc(-c2ccncc2)c1C(=O)O the results were LANA-H2B inh -0.1, B2AR ag -2, Calb FLC -2, HNF4A DNA FP 2.9, ALR H2O2 inh -4, RanGTP-Impb inh -4.8 and Vif TR-FRET 26%.
`COC(=O)[C@]1(Cc2ccccc2)N[C@H](CN(C)C(=O)Nc2ccccc2)[C@@H]2C(=O)N(C)C(=O)[C@@H]21` gave LANA-H2B inh -5.5, B2AR ag 3, HNF4A DNA FP -5.4 and Vif TR-FRET -2%.

Additional structures follow:
`Cc1ccc2nc(-c3cccc(Br)c3)cc(C(=O)NC3CC3)c2c1` gave LANA-H2B inh 5.8, B2AR ag -20, Calb FLC -4, HNF4A DNA FP -1.9, ALR H2O2 inh 9, RanGTP-Impb inh 0.8 and Vif TR-FRET -28%.
CN(C)c1ccc(N/C(N)=N/c2nc(C(F)(F)F)cc(C(F)(F)F)n2)cc1 was read as LANA-H2B inh -0.6, B2AR ag -8, Calb FLC -11, HNF4A DNA FP -1.5, ALR H2O2 inh 35 and RanGTP-Impb inh 4.2.
For O=C(NC1CCSc2ccccc21)c1ccc(F)cc1 (stereo not given) the results were LANA-H2B inh 0.0, B2AR ag 3, Calb FLC 5, HNF4A DNA FP 2.0, ALR H2O2 inh -3, RanGTP-Impb inh -2.2 and Vif TR-FRET 7%.
`COc1ccc(CNC(=O)Cn2cnc3c(=O)n(C)c(=O)n(C)c32)cc1` gave LANA-H2B inh -3.3, B2AR ag 4, Calb FLC 23, HNF4A DNA FP 3.4, ALR H2O2 inh -4, RanGTP-Impb inh 1.8 and Vif TR-FRET 2%.
CCCOc1ccc(/C=C2/C(=O)ON=C2C)cc1OCC was read as LANA-H2B inh -0.4, B2AR ag 9, Calb FLC -2, HNF4A DNA FP -0.4, ALR H2O2 inh 30, RanGTP-Impb inh 2.8 and Vif TR-FRET 3%.
For CC(=O)n1cc(Nc2ccc([N+](=O)[O-])cc2)c2ccccc21 the results were LANA-H2B inh -4.2, B2AR ag 0, Calb FLC -8, HNF4A DNA FP -0.1, ALR H2O2 inh 4 and RanGTP-Impb inh -2.6.
`CCCOc1ccc(N2C(=O)CC(SCc3nc4ccccc4[nH]3)C2=O)cc1` (stereo not given) gave LANA-H2B inh -4.2, B2AR ag -10, Calb FLC 26, HNF4A DNA FP -0.7 and RanGTP-Impb inh 0.0.
Screening CCOc1ccc(-c2nc(CN3CCCC(C(=O)N4CCOCC4)C3)c(C)o2)cc1 (stereo not given) returned LANA-H2B inh -3.7, B2AR ag 0, Calb FLC -7, HNF4A DNA FP -0.2, ALR H2O2 inh -16, RanGTP-Impb inh inconclusive and Vif TR-FRET 31%.
`C=CCN(c1ccc(F)cc1)S(=O)(=O)c1cc(C(=O)OCC(=O)N(C)C2CCS(=O)(=O)C2)ccc1Cl` (stereo not given) gave LANA-H2B inh 0.8, B2AR ag 1, Calb FLC -15, HNF4A DNA FP 1.2, ALR H2O2 inh -6, RanGTP-Impb inh -0.3 and Vif TR-FRET inconclusive.
For Cc1cccc(NC(=O)c2cn(-c3ccccc3)nc2-c2ccccc2)c1 the results were LANA-H2B inh -4.3, B2AR ag -20, Calb FLC -4, HNF4A DNA FP -2.1, ALR H2O2 inh -6, RanGTP-Impb inh -0.8 and Vif TR-FRET 3%.
For CCCOc1ccc(CNC(=O)Cn2c(=O)oc3ccccc32)cc1 the results were LANA-H2B inh -5.3, B2AR ag -9, Calb FLC 0, HNF4A DNA FP 0.8, ALR H2O2 inh -2, RanGTP-Impb inh 3.6 and Vif TR-FRET 14%.
Screening COc1cccc(C2CC(c3ccc(Br)cc3)=NN2C(=O)c2ccncc2)c1OC (stereo not given) returned LANA-H2B inh 5.5, B2AR ag -15, Calb FLC inconclusive, HNF4A DNA FP -0.5, RanGTP-Impb inh 3.8 and Vif TR-FRET 5%.
